rRNA inh HTS: selective bacterial rRNA inhibition in E. coli | actives 1.6% (n = 350,000) | E. coli WT GFP vs humanized-ribosome RFP mutants, fluorescence, 24 h; hits give low values; DMSO median 0, no signal -100 | AID 720706 | GFP signal change (wild-type ribosome), % (test concentration not listed);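 active = significant combined selectivity score with lowered wild-type GFP, culture density cut under 30%, mutant RFP and density less affected; inactive = any of these conditions unmet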; also: one replicate is shown; some compounds called inactive have numbers as strong as hits
AF4-AF9 inh: blocks AF4 peptide binding to human AF9; AlphaScreen, biotin-AF4 peptide binding to FLAG-AF9; inhibition, % at 10 µM; actives 0.47% (n = 350,000); AID 651704;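 active = every replicate reaching a set inhibition limit, whatever the replicate mean, cut at about 25% in these data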;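 also: 0% = plate neutral control median and 100% = total signal loss; the record names both 10 and 1 µM as test concentration; the first replicate is given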
Target sequence (P42568 whole entry, looked up): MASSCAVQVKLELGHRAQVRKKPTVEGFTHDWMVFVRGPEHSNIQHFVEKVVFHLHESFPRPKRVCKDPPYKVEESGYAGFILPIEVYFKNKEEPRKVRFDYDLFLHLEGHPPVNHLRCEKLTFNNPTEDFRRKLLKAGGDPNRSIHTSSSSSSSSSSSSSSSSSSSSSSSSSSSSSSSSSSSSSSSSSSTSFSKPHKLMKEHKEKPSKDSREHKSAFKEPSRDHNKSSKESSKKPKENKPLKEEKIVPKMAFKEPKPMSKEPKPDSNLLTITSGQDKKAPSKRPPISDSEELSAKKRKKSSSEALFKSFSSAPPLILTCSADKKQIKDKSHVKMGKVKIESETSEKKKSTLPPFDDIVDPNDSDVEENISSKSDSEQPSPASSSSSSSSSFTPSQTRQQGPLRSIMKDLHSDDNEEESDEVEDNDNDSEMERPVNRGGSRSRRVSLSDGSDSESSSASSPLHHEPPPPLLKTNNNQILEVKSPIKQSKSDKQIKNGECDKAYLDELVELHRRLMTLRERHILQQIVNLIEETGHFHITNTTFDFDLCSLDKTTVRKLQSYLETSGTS
rRNA inh HTS OD600: recorded beside rRNA inh HTS, whose call it bears; OD600 change, %; measured here: OD600 growth;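 optical density of the mix in the first replicate; 0 = DMSO median and -100 = no signal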
rRNA inh HTS RFP: second read-out of rRNA inh HTS, no call of its own (marks repeat the call); RFP signal change, %; measured here: RFP humanized mutant strains;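 first replicate; 0 = DMSO median and -100 = no signal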
An asterisk follows results filed as active; & = joins results of further samples. A portion of the library; rates above refer to the full screens.

cpd	rRNA inh HTS	rRNA inh HTS OD600	rRNA inh HTS RFP	AF4-AF9 inh	Structure
1	8.6	16.7	-4.0	-2.3	C[C@H](CO)N1C[C@H](C)[C@@H](CN(C)Cc2cccc(F)c2)Oc2ncc(C#C[C@@H](C)O)cc2C1=O
2	-1.2	2.6	-2.5	0.7	CCS(=O)(=O)Nc1ccc2c(c1)C(=O)N(C)C[C@H](OC)[C@@H](C)CN(CCC(F)(F)F)[C@@H](C)CO2
3	0.2	3.7	1.0	-1.9	CCNC(=O)[C@H]1[C@H](CO)[C@H]2Cn3c(cccc3=O)[C@@H]1N2Cc1cc(F)ccc1F
4	-1.6	-9.1	0.9	1.2	CC(C)CNC[C@@H]1[C@@H](c2ccccc2)[C@@H](CO)N1Cc1ccc(F)cc1
5	-4.4	3.2	0.6	-0.1	CC(=O)NC[C@H]1[C@@H](c2ccc(-c3ccccc3F)cc2)[C@@H](CO)N1CCC(F)(F)F
6	-1.2	1.3	-2.7	15.1	Cn1cnc(S(=O)(=O)N2CC[C@@H]3[C@@H](CO)Nc4ccc(C#Cc5ccc(F)cc5)cc4[C@@H]32)c1
7	2.5	-33.2	21.9	-4.1	O=C(CC1CC1)N1CC(=O)N2[C@H](CO)[C@H](c3ccc(C#Cc4ccc(F)cc4)cc3)[C@H]2C1
8	2.8	5.2	0.2	-1.4	CC(=O)N1[C@@H]2c3ccc(C4=CCCC4)c(=O)n3C[C@H]1[C@H](CO)[C@H]2C(=O)NC1CCCC1
9	1.9	1.5	-3.8	-3.1	COCC(=O)N(C)C[C@@H]1Oc2ncc(-c3ccccc3C)cc2C(=O)N([C@H](C)CO)C[C@@H]1C
10	-2.5	0.6	0.9	-1.1	C[C@H]1CCCCO[C@H](CN(C)C(=O)Nc2ccc(F)cc2)[C@@H](C)CN([C@@H](C)CO)C(=O)c2cc(NC(=O)NC3CCCCC3)ccc2O1
11	4.1	2.8	-0.7	2.5	CCN1[C@@H]2c3ccc(-c4ccccc4F)c(=O)n3C[C@H]1[C@H](CO)[C@H]2C(=O)NCCOC
12	-2.2	3.9	-3.1	4.4	C[C@H](CO)N1C[C@H](C)[C@H](CN(C)C(=O)Nc2ccc3c(c2)OCO3)Oc2ncc(-c3ccc(F)cc3)cc2C1=O
13	2.3	9.1	-3.4	2.0	COc1ccc(NC(=O)Nc2ccc3c(c2)[C@H]2C[C@@H](CC(=O)N4CCN(C)CC4)O[C@@H](CO)[C@H]2O3)cc1
14	1.7	-1.0	-4.3	1.6	O=C(c1cccnc1)N1C[C@H]2[C@@H](c3ccccc31)[C@H](CO)N2C(=O)C1CCCCC1
15	2.4	6.1	-0.7	-1.4	CC(C)NC(=O)N(C)C[C@H]1Oc2ccc(NC(=O)Cn3cnnn3)cc2CC(=O)N([C@@H](C)CO)C[C@H]1C
16	1.8	-6.4	4.2	-1.9	C[C@H]1CN([C@@H](C)CO)C(=O)Cc2cc(NC(=O)CCC(F)(F)F)ccc2O[C@H]1CN(C)C(=O)Nc1cccc2ccccc12
17	-1.3	-4.6	2.5	-0.4	CC(C)NC(=O)Nc1ccc2c(c1)C(=O)N([C@H](C)CO)C[C@@H](C)[C@H](CN(C)S(=O)(=O)c1cccs1)OCCCC[C@H](C)O2
18	-15.7	-30.1	3.1	1.9	CC1(Cc2cccc(F)c2)C(=O)Nc2ccc(S(=O)(=O)NC3CCCCC3)cc21 (configuration not stated)
19	-39.0*	-26.4*	-1.2*	-26.9	Cc1ccc([C@H]2C(C(=O)O)=CC[C@@H](c3ccc(C)cc3)N2S(=O)(=O)c2ccccc2C)cc1
20	-0.5	-0.7	0.3	-3.5	COc1ccc(CN(C)C[C@@H]2Oc3c(NC(=O)c4cc(C)nn4C)cccc3C(=O)N([C@H](C)CO)C[C@@H]2C)cc1
21	-0.7	-1.8	2.1	2.7	COc1ccc2c3c([nH]c2c1)[C@H](CO)N(C(=O)Nc1ccc(F)cc1)CC31CCN(CC2CC2)CC1
22	-3.9	-0.7	-0.1	-1.4	C[C@H]1CN([C@@H](C)CO)C(=O)c2cccc(NC(=O)c3cnccn3)c2O[C@H]1CN(C)C(=O)Nc1cccc2ccccc12
23	0.9	2.7	-0.8	-3.1&-2.6	CC(=O)N1[C@@H](CO)[C@H](c2ccccc2)[C@@H]1CN(C(=O)NC(C)C)C1CCCC1
24	1.5	18.7	-2.8	-0.2	CCNC(=O)C[C@@H]1CC[C@H](NC(=O)NC2CCCCC2)[C@@H](CO)O1
25	2.4	2.1	0.0	0.6	CN1c2ccc(-c3ccccc3)cc2[C@@H]2[C@@H](CCN2C(=O)CN2CCOCC2)[C@@H]1CO
26	2.7	9.8	-0.9	-2.4	C/C=C/c1ccc([C@@H]2[C@H](CO)N(S(=O)(=O)CC)C23CN(C(C)=O)C3)cc1
27	-1.0	-2.8	-0.9	-0.6	C[C@@H]1CN([C@H](C)CO)C(=O)c2ccccc2-c2ccccc2CO[C@@H]1CN(C)C(=O)Nc1ccnc(N2CCOCC2)c1
28	-0.6	9.9	-1.3	5.2	O=C(C[C@@H]1CC[C@H]2[C@@H](COC[C@@H](O)CN2S(=O)(=O)c2ccccc2)O1)NCc1ccc2c(c1)OCO2
29	-2.0	4.3	-1.8	-1.8	COc1ccc(S(=O)(=O)Nc2ccc3c(c2)C(=O)N([C@H](C)CO)C[C@H](C)[C@@H](CN(C)Cc2ccc(C(=O)O)cc2)OCCCC[C@@H](C)O3)cc1
30	-24.2*	-19.2*	2.2*	0.8	O=S1(=O)CC(N2CCN(Cc3ccccc3F)CC2)CN1Cc1cn(Cc2cccc(Cl)c2)nn1 (configuration not stated)
31	1.9	2.5	-2.3	-5.9	C[C@@H]1CN([C@H](C)CO)C(=O)c2cc(-c3ccc(F)cc3)cnc2O[C@@H]1CN(C)S(C)(=O)=O
32	3.0	-8.0	-1.5	-3.0	CC(C)=CCC[C@H](C)C[C@@H]1Cc2[nH][nH]c(=O)c2[C@H](c2ccc(Cl)cc2)O1
33	-0.3	5.6	4.6	5.0	COc1cccc(-c2nc3nc(C)cc(C)n3c2NC2CCCCC2)c1
34	1.4	-0.4	-1.6	-0.7	O=C(NCC1CCCCC1)[C@H]1[C@H](CO)[C@H]2Cn3c(ccc(-c4cccnc4)c3=O)[C@@H]1N2
35	-12.2	-6.7	-15.4	17.0	O=C1CC[C@@H]2C[C@@]3(C[C@@H]4CCN1[C@H]24)Nc1cc([N+](=O)[O-])ccc1NC3=NCc1ccccc1
36	6.1	5.9	6.4	-1.2	CCC(=O)Nc1ccc2c(c1)C(=O)N(C)[C@H]1CC[C@H](CC(=O)NCC3CC3)O[C@@H]1CO2
37	1.5	12.6	-0.2	-2.1	C[C@H](O)C#Cc1ccc2c(c1)O[C@@H](CN(C)C)[C@H](C)CN([C@@H](C)CO)S2(=O)=O
38	-2.0	-1.1	2.7	1.3	Cc1ccc(S(=O)(=O)N(C)C[C@H]2OCCCC[C@@H](C)Oc3ccc(NS(=O)(=O)c4cccs4)cc3C(=O)N([C@H](C)CO)C[C@H]2C)cc1
39	-3.2	10.6	-5.9	1.4	Cc1ccc(NC(=O)CN(C2=NC3CS(=O)(=O)CC3S2)c2ccccc2)cc1 (configuration not stated)
40	1.0	17.2	-3.0	-0.8	COc1ccc(N2CCN(C(=O)/C=C/[C@H]3O[C@@H](n4ccc(=O)[nH]c4=O)[C@H](O)[C@@H]3O)CC2)cc1
41	0.5	11.4	-3.2	2.0	O=C(Nc1cccc(F)c1)Nc1nnc([C@@H]2O[C@H](CO)[C@@H](O)[C@H]2O)s1
42	1.5	3.9	0.2	-18.5	C[C@H]1CCCCO[C@@H](CN(C)C(=O)CCCN(C)C)[C@@H](C)CN([C@@H](C)CO)C(=O)c2cc(NC(=O)c3ccncc3)ccc2O1
43	-2.6	-6.4	2.2	-11.6	C[C@@H]1CCCCO[C@@H](CN(C)S(=O)(=O)c2cccs2)[C@H](C)CN([C@@H](C)CO)C(=O)c2cc(NS(C)(=O)=O)ccc2O1
44	5.5	6.4	2.7	-2.4	O=C1CN(S(=O)(=O)Cc2ccccc2)C[C@H]2[C@H](c3ccc(C#Cc4cccc(F)c4)cc3)[C@@H](CO)N12
45	-49.7	-71.9	-6.8	0.5	COc1cccc(NC(=O)N[C@H]2CC[C@@H](CC(=O)Nc3ccc(-c4ccccc4)cc3)O[C@@H]2CO)c1
46	-5.3	-12.6	2.8	1.9	Cc1ccccc1-c1cnc2c(c1)C(=O)N([C@@H](C)CO)C[C@H](C)[C@@H](CN(C)Cc1ccccc1F)O2
47	-0.2	1.5	1.0	-3.8	Cc1cc(C(=O)Nc2cccc3c2O[C@@H](CN(C)Cc2ccncc2)[C@@H](C)CN([C@@H](C)CO)C3=O)n(C)n1
48	-0.7	-10.2	18.8	2.4	COC(=O)[C@]12CCCCC=C1N(Cc1ccc(Cl)cc1Cl)C(=O)[C@H](CC(=O)NCc1ccc(C)o1)C2
49	7.5	13.0	-4.1	-6.6	C[C@@H]1CN([C@@H](C)CO)C(=O)c2cc(/C=C/c3ccccc3)cnc2O[C@@H]1CN(C)C(=O)Cc1cccnc1
50	2.2	1.7	-0.9	-3.5	C[C@@H]1CN([C@@H](C)CO)C(=O)c2cc(NC(=O)C3CC3)ccc2O[C@H]1CN(C)Cc1ccc(C(=O)O)cc1
51	1.9	8.6	-3.5	0.9	COc1ccc2c3c([nH]c2c1)[C@H](CO)N(C(=O)CN1CCOCC1)CC31CCN(C(=O)NC(C)C)CC1
52	-1.0	7.2	4.2	13.7	C[C@@H]1CN([C@@H](C)CO)C(=O)c2cc(NC(=O)Cc3cn(C)c4ccccc34)ccc2O[C@@H]1CN(C)Cc1ccccc1
53	-3.8	4.0	1.2	-1.3	O=C(C[C@H]1C=C[C@@H](NC(=O)c2ccc3c(c2)OCO3)[C@H](CO)O1)NCc1ccc(Cl)cc1
54	-2.3	-2.4	-1.7	-14.5	CC(C)NC(=O)N(C)C[C@H]1Oc2c(NC(=O)c3ccc(-c4nccs4)cc3)cccc2C(=O)N([C@H](C)CO)C[C@H]1C
55	7.7	19.4	-2.0	-1.6	C[C@@H]1CN([C@H](C)CO)C(=O)c2cc(C#CCc3ccccc3)cnc2O[C@@H]1CN(C)C(=O)C1CCOCC1
56	3.7	4.8	-0.6	-0.6	C/C=C/c1cnc2c(c1)C(=O)N([C@@H](C)CO)C[C@H](C)[C@H](CN(C)C(=O)Cc1cccnc1)O2
57	-7.9	-10.0	5.9	3.2	C[C@H](CO)N1C[C@H](C)[C@H](CN(C)C(=O)Nc2ccccc2)Oc2ncc(-c3cc4ccccc4o3)cc2C1=O
58	-7.5	-20.2	-2.6	-1.4	COc1ccc(NC(=O)c2cc(C3CCCCN3S(=O)(=O)c3ccc(C#N)cc3)on2)c(C)c1 (configuration not stated)
59	-0.5	-2.6	-1.4	-4.2	C[C@@H]1CCCCO[C@H](CN(C)CC2CCCCC2)[C@@H](C)CN([C@@H](C)CO)C(=O)c2cc(NS(=O)(=O)c3cn(C)cn3)ccc2O1
60	2.9	13.4	-2.8	-2.3	COc1ccc2c3c([nH]c2c1)[C@H](CO)N(C)CC31CCN(C(=O)c2cccnc2)CC1

Other compounds follow:
cpd	rRNA inh HTS	rRNA inh HTS OD600	rRNA inh HTS RFP	AF4-AF9 inh	Structure
61	14.4	12.2	2.8	-3.0	CCCC(=O)N1CCC1(C)C(=O)Nc1cc(C)ccc1C (configuration not stated)
62	-1.2	-11.9	4.8	5.0	C[C@@H]1CN([C@H](C)CO)S(=O)(=O)c2ccc(C#Cc3ccccc3F)cc2O[C@@H]1CN(C)CC1CCOCC1
63	-0.2	-1.7	-0.9	2.8	C[C@@H]1CN([C@@H](C)CO)C(=O)c2cc(NC(=O)Cc3ccccc3)ccc2O[C@@H](C)CCCCO[C@H]1CN(C)Cc1ccc(C(=O)O)cc1
64	0.6	2.1	-3.2	-0.8	CCCC(=O)N1CC2(CCN(C(=O)NC(C)C)CC2)c2c([nH]c3cc(OC)ccc23)[C@@H]1CO

Some entries already given with just AF4-AF9 inh:
nr | compound | AF4-AF9 inh
61 | CCCC(=O)N1CCC1(C)C(=O)Nc1cc(C)ccc1C (configuration not stated) | -3.0
62 | C[C@@H]1CN([C@H](C)CO)S(=O)(=O)c2ccc(C#Cc3ccccc3F)cc2O[C@@H]1CN(C)CC1CCOCC1 | 5.0
63 | C[C@@H]1CN([C@@H](C)CO)C(=O)c2cc(NC(=O)Cc3ccccc3)ccc2O[C@@H](C)CCCCO[C@H]1CN(C)Cc1ccc(C(=O)O)cc1 | 2.8
64 | CCCC(=O)N1CC2(CCN(C(=O)NC(C)C)CC2)c2c([nH]c3cc(OC)ccc23)[C@@H]1CO | -0.8

Single entries from the entries so far:
Result for CCCC(=O)N1CC2(CCN(C(=O)NC(C)C)CC2)c2c([nH]c3cc(OC)ccc23)[C@@H]1CO under rRNA inh HTS RFP: -3.2
Result for CCCC(=O)N1CCC1(C)C(=O)Nc1cc(C)ccc1C (configuration not stated) under AF4-AF9 inh: -3.0
Result for C[C@@H]1CN([C@@H](C)CO)C(=O)c2cc(NC(=O)Cc3ccccc3)ccc2O[C@@H](C)CCCCO[C@H]1CN(C)Cc1ccc(C(=O)O)cc1 under rRNA inh HTS: -0.2

Some of the entries so far, with two lines to a compound.
Results follow in this order: rRNA inh HTS | rRNA inh HTS OD600 | rRNA inh HTS RFP | AF4-AF9 inh
13: COc1ccc(NC(=O)Nc2ccc3c(c2)[C@H]2C[C@@H](CC(=O)N4CCN(C)CC4)O[C@@H](CO)[C@H]2O3)cc1
  2.3 | 9.1 | -3.4 | 2.0
36: CCC(=O)Nc1ccc2c(c1)C(=O)N(C)[C@H]1CC[C@H](CC(=O)NCC3CC3)O[C@@H]1CO2
  6.1 | 5.9 | 6.4 | -1.2

Screens as filed in PubChem.
